TRPV1 PAM – HTS Assay for Compounds that Act as Potentiators of the Vanilloid Receptor 1. 0.02% of 320,000 active. potentiation, % at 8.33 µM. Transient receptor potential cation channel subfamily V member 1 (Homo sapiens), Q8NER1. TRPV1-expressing cells, Fluo-8 calcium influx, capsaicin EC20 potentiation; host cell line not named in the record; control for the full effect not named in the record; active means potentiation above 80%; inconclusive means 30% to 80%; inactive means below 30%; note: 0% is about no effect
Target sequence (Q8NER1 whole entry, looked up): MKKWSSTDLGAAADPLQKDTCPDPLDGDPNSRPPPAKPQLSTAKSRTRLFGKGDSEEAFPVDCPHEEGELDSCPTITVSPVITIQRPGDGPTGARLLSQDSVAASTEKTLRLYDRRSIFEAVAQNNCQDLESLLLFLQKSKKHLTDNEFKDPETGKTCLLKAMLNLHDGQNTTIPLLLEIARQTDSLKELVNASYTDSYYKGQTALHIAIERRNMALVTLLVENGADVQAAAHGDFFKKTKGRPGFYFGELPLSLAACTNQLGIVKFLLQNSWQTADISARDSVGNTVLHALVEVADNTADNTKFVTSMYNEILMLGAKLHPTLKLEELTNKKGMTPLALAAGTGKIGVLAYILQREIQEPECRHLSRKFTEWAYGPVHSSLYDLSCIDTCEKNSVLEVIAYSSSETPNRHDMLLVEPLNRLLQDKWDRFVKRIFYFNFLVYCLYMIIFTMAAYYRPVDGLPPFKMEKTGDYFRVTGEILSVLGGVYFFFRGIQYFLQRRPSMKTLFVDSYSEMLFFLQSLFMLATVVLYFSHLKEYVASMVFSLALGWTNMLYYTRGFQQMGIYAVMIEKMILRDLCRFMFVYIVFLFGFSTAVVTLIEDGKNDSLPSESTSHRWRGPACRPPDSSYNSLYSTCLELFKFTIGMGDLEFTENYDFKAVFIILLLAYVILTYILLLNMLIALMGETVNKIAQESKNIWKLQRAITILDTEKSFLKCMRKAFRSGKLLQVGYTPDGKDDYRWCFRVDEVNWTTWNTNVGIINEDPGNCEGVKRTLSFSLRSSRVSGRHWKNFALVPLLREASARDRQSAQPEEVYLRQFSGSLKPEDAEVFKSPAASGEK
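TRPV1-expressing cells were cultured overnight at 35.5C and loaded with Fluo-8 calcium dye for 40 to 90 min at room temperature. After a 10 s baseline, compound was added and calcium influx was read kinetically for 3 min (ex 480/em 520 nm).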
Sfp PPTase inh – qHTS Assay for Inhibitors of Bacillus subtilis Sfp phosphopantetheinyl transferase (PPTase); Biochemical Sfp PPTase activity, qHTS; 3.5% of 310,000 active; AID 1490, 2009; Potency, µM, for inactives: max response, negative = inhibition, most hits filed as inhibitors; active = well fitted inhibition curve with a large enough effect; inconclusive = small, poorly fitted or top-dose-only effect, or another doubt; inactive = no such curve, though single readings can be large or run the other way;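 note: the enzyme is Sfp with the accession as filed and its product quenches rhodamine fluorescence; potency is the fitted concentration of half-maximal effect; 0% = enzyme reaction without inhibitor and -100% = no enzyme wells; top concentration of the series not given in the record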
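Compounds were incubated with enzyme (final 15 nM) for 15 min at room temperature before substrate addition started the reaction. Fluorescence at 525 nm excitation, 598 nm emission was recorded immediately and after 30 minutes.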
TRPML1 inh – qHTS for Inhibitors of the Human Mucolipin Transient Receptor Potential 1 (TRPML1). TRPML1-inducible cells, Ca2+ dye fluorescence, FDSS; stronger effect = lower value; inhibition of EC80 agonist-evoked calcium signal. activity change, negative = inhibition, % (concentration not given with the values). 0.02% of 390,000 active. AID 624415, 2012; in the data active means activity change below about -50%; inconclusive means about -30% to -50%; inactive means above about -30%;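 note: stimulus is agonist 54-4 at its EC80 concentration; % is set by controls: 0 for no effect and ±100 for the full control effect; compound concentration not given in the record; the text of the record puts the active cut at -80%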
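Tet-induced TRPML1-DL cells loaded with Ca8 no-wash calcium dye were read kinetically on FDSS. Compound addition was followed by EC80 agonist 54-4 (4 uM final); inhibition was read over 110 s.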
Menin MLL FP FL – qHTS Assay for Inhibitors Targeting the Menin-MLL Interaction in MLL Related Leukemias: Competition With Fluorescein Labeled MLL-derived Peptide. Fluorescence polarization, fluorescein-MLL peptide displacement from menin. FP activity change, % at 61.4 µM. 290,000 tested, under 10 active; inconclusive = falling polarisation curve, or a change in total fluorescence; inactive = total fluorescence flat and polarisation flat or rising; no compound was filed as active; the % refers to the polarisation; negative = inhibition;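 note: % of control where 0% means no effect; inhibitors lower the polarisation; unlabelled MLL peptide was the positive control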
gsp ag – qHTS for Agonist of gsp, the Etiologic Mutation Responsible for Fibrous Dysplasia/McCune-Albright Syndrome: qHTS; gsp mutant cells, cAMP HTRF, 30 min; control for the full effect not named in the record; 0.13% of 340,000 active; Potency, µM (series often up to 76.9 µM), without a hit: top-dose activation (cAMP increase), most hits filed as activators; active = well fitted activation curve with a large enough effect; inconclusive = small, poorly fitted or top-dose-only effect, or another doubt; inactive = no such curve, though single readings can be large or run the other way; cell line not stated here;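 note: phosphodiesterase inhibitor Ro 20-1724 added with compounds to block cAMP breakdown; potency is the fitted concentration of half-maximal effect; nearly all actives have a fitted effect of over 60% in size; about a fifth of the inactives were tested at one dose only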
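Cells stably selected in G418 were plated at 2000/well, grown 16-24 hr, then given compounds in DMSO with the PDE inhibitor […] (300 uM solution added) for 30 min at 37C; cAMP was read by HTRF.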
ClpP mod – qHTS Assay for Activators of ClpP. Potency, µM (doses to about 57.5 µM), without a hit: at the highest dose activity change, negative = active. AID 651965, 2013. ATP-dependent Clp protease proteolytic subunit (Bacillus subtilis (strain 168)), P80244. 1.9% of 340,000 active. purified B. subtilis ClpP, FRET peptide cleavage, 20 min; active = well fitted falling curve with a large enough effect; inconclusive = small, poorly fitted or top-dose-only effect; inactive = no such curve, though single readings can be large or run the other way; note: potency is the fitted concentration of half-maximal effect; the source files actives as falling curves though it sought activators and does not explain the sign; nearly all actives have a fitted effect of over 65% in size; many hits overshoot -100%
Target sequence (P80244 whole entry, looked up): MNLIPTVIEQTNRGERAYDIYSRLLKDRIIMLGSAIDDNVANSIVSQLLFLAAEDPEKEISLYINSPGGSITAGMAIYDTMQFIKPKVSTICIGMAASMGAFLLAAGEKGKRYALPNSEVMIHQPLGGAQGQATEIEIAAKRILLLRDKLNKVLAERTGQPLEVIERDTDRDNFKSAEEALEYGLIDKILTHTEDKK
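ClpP 10 microg/mL final, pH 8 Tris/KCl buffer with BSA, glycerol, Tween-20; compound pinned in; FRET-FV substrate; RT 20 min; Ex320/Em430; ΔFRET vs ADEP 5.8 microM, DMSO, no enzyme.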
gsp antag – qHTS for Antagonists of gsp, the Etiologic Mutation Responsible for Fibrous Dysplasia/McCune-Albright Syndrome: qHTS; gsp-mutant cells, cAMP HTRF, 30 min; control for the full effect not named in the record; Potency, µM (doses to about 76.9 µM), without a hit: at the top dose activity change, negative = inhibition, usual class: inhibitors; 0.4% of 340,000 active; AID 624288, 2012; active = falling curve of any shape with a large fitted effect; inconclusive = falling curve, mostly with a smaller effect; inactive = flat or rising curve; cell line not stated here;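 note: intracellular cAMP measured with PDE inhibitor Ro 20-1724 present during compound exposure; potency is the fitted concentration of half-maximal effect; % is set by controls: 0 for no effect and ±100 for the full control effect; nearly all actives have a fitted effect of over 65% in size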
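HTRF cAMP read-out (cAMP-d2 plus anti-cAMP antibody-K in lysis buffer, 30 min RT). Before lysis, cells are exposed to compounds with […] for 30 min at 37C in DPBS containing Ca/Mg, BSA and Tween 20.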
An asterisk follows results filed as active; u = inconclusive; x = no result given; & = joins results of further samples; [ ] = dose if it differs, or a comment.

Below each SMILES – TRPV1 PAM	Sfp PPTase inh	TRPML1 inh	Menin MLL FP FL	gsp ag	ClpP mod	gsp antag
NS(=O)(=O)c1ccc(CNC(=O)COc2ccc3c4c(c(=O)oc3c2)CCCC4)cc1
  10	-6%	-4	-8.7	u	3.7%	-16%
Clc1ccc(OCCCN2CCCC2)cc1Cl
  6	7%	1	0.2	-7%[15.4 µM]	2.1%	10%
N#C[C@H](O[C@@H]1O[C@H](CO[C@@H]2O[C@H](CO)[C@@H](O)[C@H](O)[C@H]2O)[C@@H](O)[C@H](O)[C@H]1O)c1ccccc1
  x	x	-10	x	x	1.4%	11%
CN(C)c1ccc(C(=O)c2ccc(N(C)C)cc2)cc1
  -21	2%	36	1.8	u	-3.5%	0%
O=C1CC(c2cccnc2)=NN1c1ccccc1
  -2	3%	20	-2.0	17%[15.4 µM]	x	-7%
CC(Cc1ccccc1)NC(=O)Cc1ccc([N+](=O)[O-])cc1 (stereo not given)
  -16	15%	2	0.8	-3%	0.2%	7%
COC(=O)C1=C(c2ccc(OC)c(OC)c2)C[C@@H]2CC[C@H]1N2C(=O)NCCOc1ccc(OC)cc1
  4	x	-8	x	x	-0.5%	-1%
COC(=O)C1=C(c2ccccc2OCc2ccccc2)C[C@@H]2CC[C@H]1N2C(=O)NCc1ccc(C(C)(C)C)cc1
  -8	x	-1	x	-21%	-1.8%	-4%
COC1=C(C)C(=O)C2=C(C1=O)C(CO)N1C(C#N)C3CC4C(C1C2N1CCOC41)N3C (stereo not given)
  x	x	-3	x	12%	-2.5%	4%
N#CC1c2ccccc2-n2nncc2CN1S(=O)(=O)c1ccccc1 (stereo not given)
  x	x	6	x	x	-1.8%	9%
CN(C)C1(c2nnnn2-c2ccc(Cl)cc2)CCCCC1
  x	7%	3	-2.0	-14%	-1.4%	-5%
Nc1ccc(CCN2CCCC2)cc1
  1	11%	x	3.0	-22%	2.2%	4%
c1cncc(C2CC(c3cccs3)n3ncnc3N2)c1 (stereo not given)
  6	22%	-6	0.0	0%	-15%	6%
O=c1[nH]c(O)c(N=Nc2ccc3c(c2)OCCO3)c(=O)[nH]1
  -3	17%	1	25	-11%[15.4 µM]	x	-25%
CCCCCCCSc1cc(OC)c(CCNC)cc1OC
  -5	u	79	0.5	-81%[inhibitor]	-1.4%	14%
CN1CCCN(C(=O)COc2ccccc2Br)CC1
  3	7%	-1	x	-43%[inhibitor]	0.0%	10%
CCCCn1c(=O)c(C(=O)NCc2ccco2)c(O)c2ccccc21
  -4	3%	-11	-0.1	-39%[inhibitor]	x	-8%
O=C1NCCOC(=O)[C@@H](Cc2ccc(F)cc2)CC/C=C/C[C@@H]1CC(=O)N(CCO)Cc1ccccc1
  x	x	-10	x	4%	-0.6%	0%
CCC(C)N1CCN(C(=O)Cc2ccccc2)CC1 (stereo not given)
  4	-17%	-8	1.8	-6%	0.2%	15%
CCOC(=O)CN1C(=O)C2(C(C#N)=C(N)Oc3ccccc32)C(C(=O)OC)=C1C (stereo not given)
  9	14%	-21	-4.8	0%	-6.6%	7%
CCCCN1C(=O)NC(=O)C2(Cc3c(nc4c(C)cccn4c3=O)N3CCc4ccccc4C32)C1=O (stereo not given)
  -1	-13%	-2	3.2	5%	u	-17%
CCCNC(=O)N1[C@H]2CC[C@@H]1C(C(=O)OC)=C(c1ccc(F)cc1F)C2
  -2	x	15	x	-10%	1.7%	5%
O=c1c2ccccc2nc(-c2ccccc2)n1-c1nccs1
  -9	3%	-5	6.8	-8%[15.4 µM]	3.3%	17%
COc1ccc(C(C)=O)cc1CC(C(=O)c1ccc(C)cc1)N(C)C (stereo not given)
  4	5%	-3	5.2	-6%	-1.0%	4%
O=C1/C(=C\c2cc3c(cc2Cl)OCO3)N2CCC1CC2
  -6	6%	-8	3.0	-24%	u	0%
c1ccc(Cc2nn3c(Cn4cnc5ccccc54)nnc3s2)cc1
  -2	-64%	-1	2.7	-32%[inhibitor]	-1.8%	u
CC1CCN(CC#CCOc2ccc(Cl)cc2)CC1
  -9	-22%	15	0.0	-11%	0.5%	12%
COc1ccc(CCNCc2ccccc2F)cc1
  -7	-1%	0	-8.9	-8%	0.2%	16%
O=c1oc2ccccc2c(O)c1C(c1ccccn1)c1c(O)c2ccccc2oc1=O
  18	-3%	-2	x	-21%	1.7%	12%
C[C@H]1C[C@@H](C)C(=O)[C@@H]([C@H](O)CC2CC(=O)NC(=O)C2)C1
  14	3%&3%	x	-1.9	x	0.1%	11%
CCCCc1ccc(NC2=NCCCS2)cc1
  9	6%	-10	-0.4	-14%[15.4 µM]	x	7%
CC(=O)C1(c2ccccc2)CCN(C(=O)C2CCC(=O)N(CCc3cccc(F)c3)C2)CC1 (stereo not given)
  -1	19%	-12	0.0	-3%[15.4 µM]	-1.7%	-7%
CCC(C)C1(CC)C(=O)NC(=O)N=C1N (stereo not given)
  2	8%	2	-1.8	21%	0.3%	4%
CC[N+](C)(CC)CCCOC(=O)C(O)(c1ccccc1)C1CCCCC1 (stereo not given)
  0	-2%	-1	4.4	-12%	1.2%	-6%
Cc1nc2cc(-c3ccc(Cl)cc3)nn2c(C)c1CCC(=O)N1CCC2(CC1)OCCO2
  x	x	10	x	2%	u	-1%
Cc1ccc(C2=NC(C)(C)N3C2C3c2ccc([N+](=O)[O-])cc2)cc1 (stereo not given)
  -16	6%	10	4.5	-7%	0.8%	2%
CN1CC(C(=O)c2ccc(Cl)cc2)C(c2ccc(N(C)C)cc2)C1 (stereo not given)
  -2	2%	16	1.5	-4%	0.6%	-4%
NCCc1ccc(S(N)(=O)=O)cc1
  -3	14%	5	-3.7	22%	-1.9%	1%
CCOc1cc(CNCCc2c[nH]c3ccccc23)cc(Cl)c1OC
  0	-4%	-4	-0.4	-6%[15.4 µM]	x	13%
O=C1C2CCCN2C(c2cccnc2)N1c1ccc(Cl)c(Cl)c1 (stereo not given)
  -31	13%	6	3.0	-4%	2.0%	-1%

Nothing new here: 2 of the compounds above.
Below each SMILES – TRPV1 PAM	Sfp PPTase inh	TRPML1 inh	Menin MLL FP FL	gsp ag	ClpP mod	gsp antag
CCOc1cc(CNCCc2c[nH]c3ccccc23)cc(Cl)c1OC
  0	-4%	-4	-0.4	-6%[15.4 µM]	x	13%
O=C1C2CCCN2C(c2cccnc2)N1c1ccc(Cl)c(Cl)c1 (stereo not given)
  -31	13%	6	3.0	-4%	2.0%	-1%

Molecules shown so far that have a cyano group:
Below each SMILES – TRPV1 PAM	Sfp PPTase inh	TRPML1 inh	Menin MLL FP FL	gsp ag	ClpP mod	gsp antag
N#C[C@H](O[C@@H]1O[C@H](CO[C@@H]2O[C@H](CO)[C@@H](O)[C@H](O)[C@H]2O)[C@@H](O)[C@H](O)[C@H]1O)c1ccccc1
  x	x	-10	x	x	1.4%	11%
COC1=C(C)C(=O)C2=C(C1=O)C(CO)N1C(C#N)C3CC4C(C1C2N1CCOC41)N3C (stereo not given)
  x	x	-3	x	12%	-2.5%	4%
N#CC1c2ccccc2-n2nncc2CN1S(=O)(=O)c1ccccc1 (stereo not given)
  x	x	6	x	x	-1.8%	9%
CCOC(=O)CN1C(=O)C2(C(C#N)=C(N)Oc3ccccc32)C(C(=O)OC)=C1C (stereo not given)
  9	14%	-21	-4.8	0%	-6.6%	7%

The results go on:
Below each SMILES – TRPV1 PAM	Sfp PPTase inh	TRPML1 inh	Menin MLL FP FL	gsp ag	ClpP mod	gsp antag
O=C(c1cccc(C(F)(F)F)c1)C1CCCN(Cc2ccccc2O)C1 (stereo not given)
  24	4%	13	-3.3	14%[15.4 µM]	x	x
CCNCC1(c2ccc(OC)c(OC)c2)CCCC1
  -11	19%	5	0.3	3%	-4.9%	-10%
Cn1cc(C(=O)OCC(=O)N2CCCCC2)c2ccccc21
  1	x	-6	x	-52%[inhibitor]	-0.4%	10%
O=C(OC1CCN(CCCl)CC1)C(c1ccccc1)c1ccccc1
  4	x	36	4.2	x	-0.8%	-12%
CNC(=O)Oc1ccccc1C1CCCCC1
  x	x	-9	x	-9%	x	7%
CC1OC(NCCc2ccccc2)C(O)C(O)C1O (stereo not given)
  1	-3%	7	0.8	-2%	1.0%	1%
Cc1c(C(=O)C(=O)N2CCOCC2)c2ccccc2n1Cc1ccccc1
  5	8%	14	x	u	-1.2%	10%
CCCCCn1c(=O)c(C(=O)Nc2cccc(C)c2)c(O)c2ccccc21
  0	-5%	x	-3.0	-2%	-1.2%	6%
O=C1NC(=O)C(CCc2ccncc2)(Cc2cccc(Cl)c2Cl)C(=O)N1c1ccc(Br)cc1 (stereo not given)
  -5	-2%	26	0.9	-4%	0.6%	u
Cc1ccc(OCC(=O)Nc2ccc(Cl)cc2C(=O)c2ccccc2)cc1
  2	-1%	-7&0	-1.6	-5%	-3.5%&1.4%	-6%
CCCCCn1c(=O)c(C(=O)Nc2ccccc2C)c(O)c2ccccc21
  -2	-24%	-3	-3.2	-16%	x	3%
CCn1c(O)c(C=NCc2ccccc2)c(=O)[nH]c1=S
  1	5%	11	1.4	1%[15.4 µM]	x	-10%
CC1(CCCc2ccc(N(CCCl)CCCl)cc2)NC(=O)NC1=O (stereo not given)
  x	x	2	x	0%	-1.1%	x
CN1CCC(O)(c2ccccc2)C2CCCC21 (stereo not given)
  -5	13%	-1	-1.2	14%	0.7%	8%
COc1ccc(CNC(=O)/C=C/c2ccc3[nH]cc(CCN(C)C)c3c2)cc1
  -2	5%	-3	5.0&1.3	x	-4.4%&-5.3%	-7%
COCCCNC(=O)c1c(NC(=O)c2ccco2)n(Cc2ccccc2)c2nc3ccccc3nc12
  14	-10%	9	u	20%	16µM*	-10%

Screening data from PubChem BioAssay.

A portion of the library; rates above refer to the full screens.
